# Cruzain noTriton – blocks cruzain activity in detergent-free assay; P25779; purified cruzain, Z-FR-AMC fluorescence, no detergent; Potency, µM, inactives show max response, negative = inhibition, most hits filed as inhibitors; 2.3% of 200,000 active; active means well fitted curve in the direction sought with a large enough effect; inconclusive means small, poorly fitted or top-dose-only effect, or another doubt; inactive means no such curve, though single readings can be large; an effect the other way counts as inactive or inconclusive;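 further: plate controls were enzyme without inhibitor for no effect and buffer without enzyme for full effect; nearly all actives have a fitted effect of over 40% in size; top concentration of the series not given in the record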
# Target sequence (P25779 123-467 limits assumed): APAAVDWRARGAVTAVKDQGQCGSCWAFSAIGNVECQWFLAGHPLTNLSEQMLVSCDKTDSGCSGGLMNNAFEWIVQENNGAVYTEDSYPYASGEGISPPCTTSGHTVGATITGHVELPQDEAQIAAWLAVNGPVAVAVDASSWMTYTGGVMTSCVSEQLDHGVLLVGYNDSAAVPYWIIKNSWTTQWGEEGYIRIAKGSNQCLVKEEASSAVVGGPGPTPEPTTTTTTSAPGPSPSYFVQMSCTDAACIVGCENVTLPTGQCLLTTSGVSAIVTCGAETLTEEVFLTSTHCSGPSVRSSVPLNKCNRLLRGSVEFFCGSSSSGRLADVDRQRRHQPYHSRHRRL
#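 Detergent-free condition (0.00005% Triton X-100) in acetate buffer pH 5.5 with DTT. 1.5 nM enzyme and compound were pre-mixed 15 min, then 2 uM Z-FR-AMC substrate added; reaction progress from fluorescence change between first and third reads (60 s).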
# NS1 inh – influenza NS1 inhibition | Potency, µM (titrated, usually from 46.1 µM), without a hit: at the highest dose activity, positive = more growth | AID 2326 | 0.4% of 270,000 active | S. cerevisiae slowed by influenza A NS1, growth recovery by OD600; further: actives are rising curves; nearly all actives have a fitted effect of over 50% in size
#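 Compounds were scored for reversing the slow growth caused by influenza A NS1 in S. cerevisiae, measured by optical density at 600 nm. Assay medium contained 2% galactose at pH 6.0; NS1-free yeast of the same strain were the positive control.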
# StopGo reporter – lowers the luciferase signal of an FMDV 2A StopGo reporter; Potency, µM (top dose mostly 57.9 µM), for the others: at the highest dose signal change, negative = less light; human cells with a luciferase reporter of 2A StopGo recoding; control for the full effect not named in the record; 1.2% of 410,000 active; AID 1159524; active = well fitted falling curve with a large enough effect; inconclusive = small, poorly fitted or top-dose-only effect; inactive = no such curve, though single readings can be large or run the other way; tested in HEK293T cells; further: on the % scale 0 is the no-effect control and ±100 the full control effect; nearly all actives have a fitted effect of over 45% in size; luciferase light after 4 h
# RE007 growth inh – less growth of the S. pombe RE007 Vpr strain. AID 651644. Potency, µM (titrated, usually from 92.2 µM), for inactives: top-dose activity change, negative = less growth. S. pombe RE007 Vpr strain, BacTiter-Glo ATP luminescence, 24 h; control for the full effect not named in the record. 0.21% of 360,000 active; active = well fitted falling curve with a large enough effect; inconclusive = small, poorly fitted or top-dose-only effect; inactive = no such curve, though single readings can be large or run the other way;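 further: on the % scale 0 is the no-effect control and ±100 the full control effect; nearly all actives have a fitted effect of over 50% in size; the assay follows cell death caused by Vpr and the record does not say whether a fall means rescue or toxicity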
#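 Fission yeast RE007 carrying one integrated HIV-1 vpr copy, seeded at OD 0.01 in PMG+AL medium with 23 nL pinned compound. Grown 24 h at 30 degrees; viability read by BacTiter-Glo luminescence after 5 min.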
# Marburg entry inh – inhibitors of Marburg virus binding or cell entry. Marburg virus pseudotyped entry inhibition, cell reporter; control for the full effect not named in the record; about a third of the inactives were read at about 46 µM. Potency, µM (series often up to 37.8 µM), for inactives: at the highest dose activity change, negative = inhibition, usual class: inhibitors. 1.8% of 300,000 active; active = well fitted inhibition curve with a large enough effect; inconclusive = small, poorly fitted or top-dose-only effect, or effect the other way; inactive = flat fitted curve, though single readings scatter; tested in HEK293 cells; about a fifth of its hits are not listed in these tables; further: on the % scale 0 is the no-effect control and ±100 the full control effect; luciferase read-out
# Lassa entry inh – inhibitors of Lassa virus binding or cell entry. AID 540256. Lassa virus pseudotype entry inhibition, cell reporter; control for the full effect not named in the record. 1.2% of 300,000 active. Potency, µM (series often up to 37.9 µM), inactives show at the highest dose activity change, negative = inhibition, most hits filed as inhibitors; active means well fitted inhibition curve with a large enough effect; inconclusive means small, poorly fitted or top-dose-only effect, or effect the other way; inactive means flat fitted curve, though single readings scatter; tested in HEK293 cells; further: on the % scale 0 is the no-effect control and ±100 the full control effect; nearly all actives have a fitted effect of over 50% in size; luciferase read-out
# SARS PLP yeast – SARS-CoV PLP inhibition in yeast | AID 485353 | 0.19% of 330,000 active | S. cerevisiae expressing SARS-CoV PLpro, growth rescue; control for the full effect not named in the record | Potency, µM (titrated, usually from 32.9 µM), for inactives: at the top dose activity, positive = growth rescue; further: 0% is about no effect; nearly all actives have a fitted effect of over 55% in size; growth read by luminescence after 48 h
# Cruzain inh Det – inhibitors of Trypanosoma cruzi cruzain with detergent. purified cruzain, Z-FR-AMC fluorescence, 0.01% Triton. 0.43% of 200,000 active. Potency, µM, for inactives: max response, negative = inhibition, usual class: inhibitors. P25779. AID 1478; active means well fitted curve in the direction sought with a large enough effect; inconclusive means small, poorly fitted or top-dose-only effect, or another doubt; inactive means no such curve, though single readings can be large; an effect the other way counts as inactive or inconclusive;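 further: plate controls were neutral wells for no effect and buffer without enzyme for full effect; nearly all actives have a fitted effect of over 40% in size; top concentration of the series not given in the record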
#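 Detergent-containing arm of a paired screen for aggregation-based inhibition: 0.01% Triton X-100 present. Cruzain at 1.5 nM cleaved 2 uM Z-FR-AMC at pH 5.5 with 5 mM DTT; AMC fluorescence gain over 60 s measured activity.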
# An asterisk follows results filed as active; ? = inconclusive; nt = not tested or not shown; [ ] = dose if it differs, or a comment. Unless noted, the call rests on the fitted dose curve; in most records, active means well fitted rising curve with a large enough effect; inconclusive means small, poorly fitted or top-dose-only effect; inactive means no such curve, though single readings can be large or run the other way. Potency means the concentration at half of the fitted maximal effect.
SMILES,Cruzain noTriton,NS1 inh,StopGo reporter,RE007 growth inh,Marburg entry inh,Lassa entry inh,SARS PLP yeast,Cruzain inh Det
COc1cccc(NC(=O)CN(C)C(=O)c2sc3cc(Cl)ccc3c2Cl)c1,nt,nt,?,4%,?,2%,-11%,nt
CCOC(=O)c1ccc(N2C(=O)c3n[nH]c(-c4cccs4)c3C2c2ccc(C(C)(C)C)cc2)cc1 (stereo not given),-1%,nt,?,nt,-2%[46.1 µM],11%[46.1 µM],nt,-1.4%
CC(=O)Nc1ccc(Nc2nc3c(S(=O)(=O)c4ccc(C)c(C)c4)nnn3c3ccccc23)cc1,nt,nt,-1%,-1%,21%[46.1 µM],-2%,24%,nt
COc1cc(OC)cc(C(=O)N2CCN(Cc3cccc(F)c3)CC2)c1,0%,-9%,-4%,5%,-3%,-10%,5%,6.8%
Cc1c(C(=O)O)cccc1N1C(=O)Nc2ccccc2N1O,-6%,8%,-17%,19%,1%,2%,26%,1.7%
COc1ccccc1-n1cc(-c2ccc(C)cc2)[nH]c1=S,nt,0%,-18%,-2%,?,?,-1%,nt
COc1cccc2cc(C(=O)NCc3ccco3)c(=O)oc12,-10%,1%,22%,0%,?,8%,-1%,-7.9%
Cc1cc(Nc2ccc(C(=O)O)cc2)nc(N)n1,nt,3%,2%,-6%,-1%,-12%,?,nt
CCN(CC)S(=O)(=O)c1cccc(C(=O)N2CC(O)CC2C(=O)O)c1 (stereo not given),-12%,9%,-12%,4%,8%,8%,2%,1.8%
O=C1COc2ccc(C(=O)NC3CC3)cc2N1,nt,nt,-5%,-5%,3%,4%,-1%,nt
COC(=O)c1ccc(NC(=O)Cn2cnc3c(nnn3-c3cccc(OC)c3)c2=O)cc1,nt,1%,-9%,14%,nt,nt,-1%,nt
COc1ccc(C(=O)/C=C(\C)Nc2ccc3c(c2)OCO3)cc1,-5%,12%,62%[activator],-26%,2%,14%,0%,-9.0%
C#CCOc1ccc(/C=N/O)cc1Cl,7%,-2%,1%,-23%,8%,-6%,-1%,-3.1%
CCCCn1nnnc1SCC(=O)NNC(=O)C1CCCCC1,-7%,3%,-23%,6%,-4%,18%,3%,2.2%
CN1CCCC(OC(=O)c2cc(Cl)ccc2Cl)C1 (stereo not given),-6%,3%,-24%,-8%,4%,-1%,4%,1.6%
CCN1C(=O)[C@H]2[C@H]3CN=C(SCc4ccc(C)cc4)N3[C@@](CC)(C(=O)OC)[C@H]2C1=O,nt,nt,-11%,4%,-6%,nt,-15%,nt
COc1ccc(NC(=O)C2CCCN(C(=O)NC3CCCCC3)C2)cc1OC (stereo not given),2%,-8%,-9%,24%,-4%,9%,7%,6.0%
CC(=NNC(=O)c1cc(C)oc1C)c1ccc(Br)s1,nt,nt,-17%,-11%,16%,15%,5%,nt
COc1ccc(/C=N/NC(=O)C(=O)N2CCCCCC2)cc1[N+](=O)[O-],nt,-2%,33%[activator],-22%,0%[46.1 µM],-2%[46.1 µM],?,nt
CN(CC(=O)Nc1cccc(F)c1)CC(=O)Nc1ccccc1[N+](=O)[O-],nt,nt,?,-9%,-8%,-12%,-4%,nt
COc1ccccc1NC(=O)C(C)OC(=O)CCCOc1ccccc1 (stereo not given),nt,nt,-12%,0%,0%,26%,-15%,nt
Cc1cc(-c2nc(C)c(C(=O)NN)s2)no1,nt,2%,0%,18%,-22%,?,0%,nt
CCOc1ccc(C(c2c(O)cc(C)n(Cc3ccco3)c2=O)N2CCN(C)CC2)cc1 (stereo not given),?,nt,-16%,nt,nt,?,nt,1.5%
Cc1ccc2cc(CCNS(=O)(=O)c3ccc(Br)cc3)c(=O)[nH]c2c1C,nt,7%,0%,3%,-23%[46.1 µM],?,-4%,nt
COc1ccc(CC(=O)O/N=C(\N)Cc2ccc(OC)cc2)cc1,-1%,-12%,-20%,-9%,11%,-19%,-3%,-1.2%
Cc1ccc2cccc(S(=O)(=O)NC3CCS(=O)(=O)C3)c2n1 (stereo not given),1%,16%,59%[activator],-2%,5%,-10%,-2%,5.0%
COc1ccc(C(=S)N2CCCC2)cc1C,-7%,-6%,nt,8%,-1%,1%,6%,-2.7%
O=C(c1ccc(Cl)cc1)N1CCC(C(=O)N2CCCc3ccccc32)CC1,nt,4%,?,33%,-14%,?,-6%,nt
Cc1ccnc(NS(=O)(=O)c2ccc(NC(=O)c3ccc4c(c3)OCCO4)cc2)n1,nt,0%,17%,4%,25%,3%,1%,nt
Cc1ccc(SCC(=O)NC(=O)c2ccc(S(=O)(=O)N(C)C)cc2)cc1C,3%,-11%,13%,14%,17%,2%,-8%,-2.6%
COC(=O)c1ccc(OCC(=O)NC2CCCCCC2)cc1,nt,-26%,-7%,13%,nt,nt,4%,nt
COc1ccc(OC(=O)c2cnc3n(c2=O)CCS3)cc1,nt,-1%,33%[activator],-4%,8%,1%,0%,nt
CC(C)CC(NC(=O)OC(C)(C)C)C(=O)O (stereo not given),nt,0%,12%,6%,nt,nt,0%,nt
Cc1ccc(-c2noc(-c3ccc(N4CCC(C)CC4)c([N+](=O)[O-])c3)n2)cc1,1%,nt,0%,nt,-2%[46.1 µM],-5%[46.1 µM],nt,-10%
O=C(CC(=O)N/N=C\c1ccc([N+](=O)[O-])cc1)NCCc1ccccc1,nt,3%,-29%,0%,18%,-2%,-1%,nt
C/C=C/C(=O)Nc1nnc(C2CCCCC2)s1,nt,-6%,33%[activator],1%,?,21%[46.1 µM],0%,nt
CSc1sc(C(=O)N2CCc3ccccc32)cc1S(=O)(=O)C(C)C,nt,4%,0%,8%,14%,-2%,3%,nt
COc1ccc(S(=O)(=O)Nc2c(C)n(C)n(-c3ccccc3)c2=O)cc1C(=O)O,nt,12%,-10%,9%,18%,15%,3%,nt
Cn1c(CNc2nc(-c3ccccc3)cs2)nnc1SCC(=O)c1ccccc1,-18%,-30%,-20%,-9%,?,-9%,-1%,-5.3%
CC1CCCC(C)N1C(=O)CSc1nnc(NC(=O)c2cccs2)s1 (stereo not given),16%,-47%,22%,10%,-20%,-16%,-4%,-8.7%
Cc1ccc(C2CC(c3cccc(Br)c3)Nc3nnnn32)cc1 (stereo not given),11%,-43%,0%,-1%,-9%,-18%,-19%,-6.9%
Nc1ccc(C(=O)OCc2csc(-c3ccccc3)n2)cc1[N+](=O)[O-],-8%,9%,-6%,-6%,0%,-24%,-15%,-3.6%
C=CCn1c(O)c(C=Nc2ccc(CN3CCCCC3)cc2)c(=O)[nH]c1=S,nt,3%,-23%,12%,10%[46.1 µM],nt,1%,nt
COc1ccccc1N1CCN(S(=O)(=O)c2ccc(F)cc2)CC1,1%,-145%,-5%,-5%,-13%,-29%[14.3 µM],-8%,4.3%
COc1ccc(C(c2nnnn2Cc2cccs2)N2CCC(C(N)=O)CC2)c(OC)c1 (stereo not given),1%,-1%,42%[activator],-17%,-16%,?,1%,2.9%
COc1cc(N)c(Cl)cc1C(=O)OCC(=O)NCC1CCCO1 (stereo not given),nt,nt,-21%,4%,-9%,21%,-2%,nt
COc1ccc(CCNC(=O)C2CCN(C(=O)c3cccc(Cl)c3)CC2)cc1OC,nt,-28%,-16%,5%,nt,nt,-6%,nt
Nc1n[nH]c(C2CC2)c1N=Nc1ccc(Cl)c(Cl)c1,nt,?,45%[activator],?,2%[46.1 µM],6%,-20%,nt
CCOC(=O)N1CCc2c(sc3c2c(=O)n(CCc2ccccc2)c(=O)n3CC(=O)Nc2ccc(C)cc2)C1,4%,nt,-12%,nt,8%[46.1 µM],8%[46.1 µM],nt,-0.5%
Cc1ccc(OC(=O)c2oc3ccc(F)cc3c2C)c(C)c1,-9%,-45%,nt,-2%,?,-1%,-26%,-4.3%
CCC1CCCCN1CC(=O)Nc1cc(C)nn1-c1nc(C)cc(C)n1 (stereo not given),3%,-3%,-21%,8%,-12%,?,6%,5.0%
COC(=O)[C@@]1(Cc2ccc(OC)cc2)[C@H]2c3cc(C(=O)N4CCCC4)n(Cc4c(CO)[nH]cc(C)c4=O)c3C[C@H]2CN1C(=O)c1ccccc1,?,nt,-21%,1%,nt,nt,nt,-1.6%
COc1ccc2nc(N(Cc3cccnc3)C(=O)COc3ccccc3)sc2c1,1%,nt,34%[activator],nt,nt,15%[46.1 µM],nt,-5.7%
CC(=O)Nc1ccc(N2CCN(c3ccc(C(F)(F)F)cn3)CC2)nc1,nt,-4%,-9%,33%,?,-8%[46.1 µM],-1%,nt
Cc1ccc(NC(=O)Nc2ccccc2OCc2cc(=O)n3ccccc3n2)c(Cl)c1,-11%,nt,-1%,nt,nt,0%[46.1 µM],nt,4.6%
O=c1[nH]c(=O)n(-c2ccc(Cl)cc2)c(O)c1C=NCCN1CCCCC1,nt,nt,-22%,-7%,-7%[46.1 µM],-4%,5%,nt
CSCCC(NC(=O)COc1ccccc1)C(=O)Nc1ccc(C)cc1 (stereo not given),6%,-2%,9%,-14%,-10%,-15%,-3%,-1.7%
O=C(COC(=O)c1n[nH]c2ccccc12)Nc1ccccc1,nt,2%,64%[activator],4%,?,16%,-3%,nt
O=C(O)c1ccccc1CSc1nc2ccccc2s1,nt,-87%,19%,10%,-2%[46.1 µM],1%,-3%,nt
CCCSC(=S)NC1CCS(=O)(=O)C1 (stereo not given),-7%,4%,nt,-2%,?,-26%,-8%,-0.7%

# Later entries.
SMILES,Cruzain noTriton,NS1 inh,StopGo reporter,RE007 growth inh,Marburg entry inh,Lassa entry inh,SARS PLP yeast,Cruzain inh Det
CCc1ccc(N2CC(C(=O)Nc3ccc4c(c3)OCCO4)CC2=O)cc1 (stereo not given),nt,-5%,-2%,-5%,-21%[46.1 µM],17%[46.1 µM],0%,nt
CC(CNC(=O)C(C)(C)C)NC(=O)C(C)(C)C (stereo not given),5µM*,10%,-21%,nt,5%,4%,2%,-2.6%
COc1ccc(/C=C(\NC(=O)c2cccs2)C(=O)NC(C)(C)C)cc1OC,nt,4%,-3%,-2%,nt,nt,-1%,nt
Cc1ccc(OCc2nnc(SCC(=O)N3CCc4ccccc43)n2C)cc1,nt,nt,-14%,19%,-1%[46.1 µM],-1%,nt,nt
O=C(COc1ccc(F)cc1)Nc1ccc2nc(SCC(=O)N3CCCC3)sc2c1,4%,nt,?,nt,2%[46.1 µM],22%[46.1 µM],nt,-4.7%
